Bioassay records from PubChem BioAssay.
Sfp PPTase inh = Sfp phosphopantetheinyl transferase inhibition | Q9F4F7 | Biochemical Sfp PPTase activity, qHTS | Potency, µM, inactives show max response, negative = inhibition, most hits filed as inhibitors | 310,000 tested, 3.5% active; active = well fitted inhibition curve with a large enough effect; inconclusive = small, poorly fitted or top-dose-only effect, or another doubt; inactive = no such curve, though single readings can be large or run the other way;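 also: the enzyme is Sfp with the accession as filed and its product quenches rhodamine fluorescence; potency is read from the fitted curve at half-maximal effect; 0% = enzyme reaction without inhibitor and -100% = no enzyme wells; top concentration of the series not given in the record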
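After 15 min at room temperature with compound, 15 nM Sfp received 5 uM rhodamine-CoA plus 12.5 uM BHQ-2-ybbR (50 mM Hepes pH 7.6, 10 mM MgCl2). Rate came from the fluorescence difference over 30 min, ex 525/em 598 nm.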
TRPV1 PAM = enhances activation of the human vanilloid receptor TRPV1 | potentiation, % at 8.33 µM | AID 540277 | Q8NER1 | TRPV1-expressing cells, Fluo-8 calcium influx, capsaicin EC20 potentiation; host cell line not named in the record; control for the full effect not named in the record | 320,000 tested, 0.02% active; active means potentiation above 80%; inconclusive means 30% to 80%; inactive means below 30%; also: 0% is about no effect
Target sequence (Q8NER1 whole entry, looked up): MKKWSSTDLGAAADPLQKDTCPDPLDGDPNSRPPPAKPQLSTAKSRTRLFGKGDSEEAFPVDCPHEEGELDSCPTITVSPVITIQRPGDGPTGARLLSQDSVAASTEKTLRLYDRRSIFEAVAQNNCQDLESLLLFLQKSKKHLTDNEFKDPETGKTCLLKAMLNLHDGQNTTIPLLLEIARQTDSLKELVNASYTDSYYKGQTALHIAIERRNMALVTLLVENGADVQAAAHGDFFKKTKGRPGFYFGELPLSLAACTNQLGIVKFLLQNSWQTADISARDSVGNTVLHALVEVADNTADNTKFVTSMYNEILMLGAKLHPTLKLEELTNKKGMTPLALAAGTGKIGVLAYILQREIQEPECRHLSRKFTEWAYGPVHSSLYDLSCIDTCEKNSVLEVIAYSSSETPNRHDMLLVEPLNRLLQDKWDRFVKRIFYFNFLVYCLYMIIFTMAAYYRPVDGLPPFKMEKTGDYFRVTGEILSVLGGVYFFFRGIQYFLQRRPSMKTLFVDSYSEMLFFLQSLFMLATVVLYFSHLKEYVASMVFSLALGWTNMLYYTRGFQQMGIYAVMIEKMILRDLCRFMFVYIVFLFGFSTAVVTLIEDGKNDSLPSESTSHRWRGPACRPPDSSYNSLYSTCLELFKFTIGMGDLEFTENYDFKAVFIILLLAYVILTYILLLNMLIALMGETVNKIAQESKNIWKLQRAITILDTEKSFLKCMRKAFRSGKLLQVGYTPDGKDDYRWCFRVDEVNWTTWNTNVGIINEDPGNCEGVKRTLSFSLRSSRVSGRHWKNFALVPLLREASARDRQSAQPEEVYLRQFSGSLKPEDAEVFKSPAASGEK
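TRPV1-expressing cells were cultured overnight at 35.5C and loaded with Fluo-8 calcium dye for 40 to 90 min at room temperature. After a 10 s baseline, compound was added and calcium influx was read kinetically for 3 min (ex 480/em 520 nm).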
Starred values were filed as active, the others as inactive; i = inactive; ? = inconclusive; & = joins results of further samples.

item	Structure	Sfp PPTase inh	TRPV1 PAM
1	Cc1ccc(S(=O)(=O)n2c3ccc(F)cc3c3nc(C)sc32)cc1	?	-3.1
2	O=[N+]([O-])/C(=C\Nc1ccccc1Cl)S(=O)(=O)c1ccccc1	-20.9%	-2.0
3	Nc1[nH]n2c(=O)cc(-c3ccccc3)nc2c1N=Nc1ccc2c(c1)OCO2	-18.0%	16.1
4	O=c1c2cc(N3CCOCC3)ccc2[nH]c(=S)n1CCCN1CCN(c2ccccc2F)CC1	13.0%	2.7
5	COCCCn1c(=NC(=O)c2ccc3c(c2)OCO3)c(C#N)cc2c(=O)n3cccc(C)c3nc21	15.1%	-9.8
6	Nc1nnc(-c2cc3c(ccc4ccccc43)oc2=O)s1	-22.4%	7.0
7	CC(C)NCCCCOc1ccccc1-c1ccccc1	?	-5.5
8	Cc1ccc2sc(NNC(=O)c3cc(-c4cccs4)nc4ccccc34)nc2c1C	-18.7%	4.7
9	COc1ccc(C(=O)/C(=C\c2sccc2C)c2nc3ccccc3o2)cc1	-3.4%	7.1
10	COc1ccc(Nc2nc(-c3sc(NC(C)=O)nc3C)cs2)cc1	39.8µM*	3.1
11	COc1cccc(C2C(C(=O)c3cccs3)=C(O)C(=O)N2CCCn2ccnc2)c1OC (stereo unspecified)	-2.4%	-6.6
12	Nc1c(C(=O)c2ccco2)oc2ccccc12	5.6%	3.0
13	CCOC(=O)c1c(C)[nH]c(C(=O)COC(=O)c2cn(CC)c3nc(C)ccc3c2=O)c1C	9.2%	3.4
14	CCOC(=O)c1cc(OC(=O)c2cccnc2)n(-c2ccccc2)n1	6.4%	0.4
15	COCC(=O)Nc1ccc(C(=O)Nc2ccccc2Cl)cc1	9.5%	12.4
16	C[C@@H](C(=O)N1CCN(C(=O)OC(C)(C)C)CC1)n1cc(-c2cn([C@@H](C)C(=O)N3CCN(C(=O)OC(C)(C)C)CC3)nn2)nn1	-5.9%	?
17	COc1ccccc1N1C(=O)C2ON(c3ccccc3)C(c3ccc(N(C)C)cc3)C2C1=O (stereo unspecified)	44.7µM*	1.4
18	Cc1nc(/N=C(\N)Nc2ccccc2)nc2ccccc12	-12.3%	-3.2
19	O=c1ccc2ccc(Oc3ccc([N+](=O)[O-])cc3[N+](=O)[O-])cc2o1	3.7%	-10.4
20	C#CCOCCOCCOCCNc1nc(N2CCN(C(=O)[C@H](Cc3ccc(O)cc3)n3cc([C@@H](N)C(C)CC)nn3)CC2)nc(N2CCN(C(=O)[C@H](CCCCN)n3cc([C@@H](N)CC(C)C)nn3)CC2)n1 (stereo partly specified)	12.6%	-8.1
21	Cc1ccc(C)n1-c1ccc(-c2nnco2)cc1	2.3%	8.6
22	CCCCNS(=O)(=O)c1ccc2nc(-c3cccnc3)cc(C(=O)NCCCN(CC)CC)c2c1	12.0%	15.4
23	COc1ccc(OC)c(Nc2nc(N)nc(CSc3nnc(-c4ccncc4)o3)n2)c1	8.3%	9.1
24	ClCc1csc(N/N=C/c2cccs2)n1	44.7µM*	-1.6
25	Cc1c(N=C2NC(=O)/C(=C/c3cccc([N+](=O)[O-])c3)S2)c(=O)n(-c2ccccc2)n1C	6.0%	7.0
26	S=c1[nH]nc(-c2ccncc2)n1/N=C/c1cccc2ccccc12	-6.3%	0.0
27	c1ccc2[nH]c(SN3CCOCC3)nc2c1	?	2.5
28	CCOC(=O)C1Cc2cc3c(cc2C1=O)CC(C(=O)OCC)C3=O (stereo unspecified)	9.6%	3.6
29	Cc1ccc(OCCN2CCN(CC(O)Cn3c4ccccc4c4ccccc43)CC2)cc1 (stereo unspecified)	44.7µM*	1.8
30	[O-][n+]1onc2c1CCC(=N/O)/C2=N\Nc1ccccc1	31.6µM*	14.3
31	O=C(NC1CC2CCCC(C1)N2C1CC1)NC12CC3CC(CC(C3)C1)C2 (stereo unspecified)	-6.7%	10.7
32	COc1ccc(-c2[nH]n(-c3ccc([N+](=O)[O-])cc3)c(=O)c2C=NCCN2CCNCC2)cc1	19.0%	-9.9
33	CC(=O)Nc1cccc(C(=O)/C=C/c2ccc(/C=C/C(=O)c3cccc(NC(C)=O)c3)cc2)c1	2.5%	0.2
34	Cc1nc(NC2=NCN(Cc3ccccc3)CN2)nc2ccccc12	-2.5%	-7.5
35	CCOc1cc(N2CCOCC2)c(OCC)cc1NC(=O)COc1ccc2ccc(=O)oc2c1	12.9%	8.7
36	COCCNC(=O)/C(C#N)=c1\s/c(=C\c2ccccc2OC(F)F)c(=O)n1Cc1ccccc1	-12.1%	6.0
37	CN(C)c1ccc(C2CC(c3ccccc3)=Nc3nc(-c4ccccc4)cn32)cc1 (stereo unspecified)	-8.4%	2.3
38	COc1ccc(/C=C2/SC(=O)N(CCC(=O)Nc3ccc(C)cc3)C2=O)cc1OC	?	20.7
39	Cc1ccc(CN2C(=O)N/C(=C/c3ccc4c(c3)n(C)c(=O)n4C)C2=O)cc1	-3.0%	-3.2
40	O=C(NC(=S)Nc1ccc2c(c1)C(=O)c1ccccc1C2=O)c1ccc(F)cc1	-27.3%	12.0
41	COc1ccc(C2C3=C(Nc4ncnn42)c2ccccc2CC3)cc1OC (stereo unspecified)	-3.4%	-4.3
42	N#Cc1cc2c(nc1SCc1nc3ccccc3[nH]1)CCC2	56.2µM*	-16.4
43	O=S1(=O)CCOCCN1Cc1ccc(Cl)cc1Cl	3.2%	-2.5
44	Cc1ccc(C(=O)C2=C(O)C(=O)N(CCN3CCOCC3)C2c2ccccn2)o1 (stereo unspecified)	-17.3%	5.0
45	COc1ccc(C2=NN(C(=O)c3ccccc3)C(c3ccc(OC)c(OC)c3)C2)c(OC(C)=O)c1 (stereo unspecified)	-5.4%	10.0
46	CCCCCCCCNC(=O)c1ccc(C)cc1	6.3%	-4.8
47	COc1nc2ccccc2cc1-c1noc(-c2cccnc2)n1	-4.6%	-1.2
48	O=C1[C@@H]2Cc3c([nH]c4ccccc34)C(c3cccc([N+](=O)[O-])c3)N2C(=O)CN1C1CCN(Cc2ccccc2)CC1 (stereo partly specified)	-2.6%	?
49	Cc1ccc(NC(=O)c2ccc(OCc3c(C)noc3C)cc2)cc1	7.8%	0.6
50	O=C(c1cc2cc(Br)cc(Br)c2oc1=O)N1CCCc2ccccc21	-16.6%	-15.5
51	COc1ccc(N2CCCn3c2nc2c3c(=O)n(CCCc3ccccc3)c(=O)n2C)cc1	2.8%	-4.2
52	CN(C)C(=O)NC(O)C(Cl)Cl (stereo unspecified)	?	?
53	O=C1COc2ccc(N3C(=O)C=CC3=O)cc2N1	3.98µM*	-4.8
54	C/C(=N\Nc1nc2ccccc2[nH]1)c1ccccn1	17.8%	-0.2
55	O=c1c2sccc2nc(SCc2cc(=O)n3ccccc3n2)n1Cc1ccccn1	0.8%	2.1
56	CSc1nc(N2CCN(CCO)CC2)c2sc3nc(-c4ccco4)c4c(c3c2n1)CCC4	-16.9%	?
57	C/C(N)=C(/C#N)C(=O)COC(=O)c1cc(-c2ccccc2)nc2ccc(Br)cc12	12.2%	0.0
58	C=C(C)CSc1nc2nc(C)c(Br)cc2[nH]1	8.2%	12.8
59	N#Cc1ccc2c(c1)C[C@]1(CCCCN3C(=O)c4ccccc4C3=O)Oc3c(c(=O)oc4ccccc34)C2O1	3.6%	i
60	COc1cc(C(=O)NC2CCCNC2)cc(OC)c1OC (stereo unspecified)	9.1%	1.4

An excerpt from above in order of their number in Sfp PPTase inh, rising:
No. | canonical_smiles | Sfp PPTase inh
50 | O=C(c1cc2cc(Br)cc(Br)c2oc1=O)N1CCCc2ccccc21 | -16.6%
51 | COc1ccc(N2CCCn3c2nc2c3c(=O)n(CCCc3ccccc3)c(=O)n2C)cc1 | 2.8%
59 | N#Cc1ccc2c(c1)C[C@]1(CCCCN3C(=O)c4ccccc4C3=O)Oc3c(c(=O)oc4ccccc34)C2O1 | 3.6%
49 | Cc1ccc(NC(=O)c2ccc(OCc3c(C)noc3C)cc2)cc1 | 7.8%
58 | C=C(C)CSc1nc2nc(C)c(Br)cc2[nH]1 | 8.2%
57 | C/C(N)=C(/C#N)C(=O)COC(=O)c1cc(-c2ccccc2)nc2ccc(Br)cc12 | 12.2%
54 | C/C(=N\Nc1nc2ccccc2[nH]1)c1ccccn1 | 17.8%

(more compounds)
item	Structure	Sfp PPTase inh	TRPV1 PAM
61	COc1ccc(-c2noc(-c3cc(Cl)ccc3Cl)n2)cc1OC	16.5%	-10.8
62	CCOC(=O)N1CCC(N2Cc3cccc(C(=O)NCc4ccc(OC)cc4)c3C2=O)CC1	5.7%	5.9
63	CCCCc1nc2ccccc2c(=O)n1NC(=O)c1c(O)c2cccc3c2n(c1=O)CCC3	11.2%	5.5
64	Cc1ccc(C)c(NC(=O)c2ccccc2C(=O)c2ccccc2)c1	-11.3%	-14.7
65	CC1CCc2sc(C(=O)N=Nc3c(O)[nH]c4ccccc34)cc2C1 (stereo unspecified)	10.6%	-0.3
66	Cc1cc(C)nc(Nc2n[nH]c(Cc3ccccc3)n2)n1	-1.2%	?
67	C[C@@H](c1ncncc1F)[C@](O)(Cn1cncn1)c1ccc(F)cc1F	8.0%	-2.6
68	COC(=O)[C@@]1(Cc2ccc(OC)cc2)[C@H]2c3cc(C(=O)N(C)C)n(CCc4ccc(OC)c(Br)c4)c3C[C@H]2CN1C(=O)c1ccccc1	-6.9%&6.8%	3.8
69	O=C1CCN(N=Nc2cccc(Cl)c2)N1	9.3%	4.1
70	COc1cc(/C=N\Nc2ccc([N+](=O)[O-])cn2)ccc1OCC(=O)O	?	-16.2
71	Cc1ccc(S(=O)(=O)N2CCSC2=Nc2ccccc2)cc1	-1.0%	-6.4
72	O=C(c1ccco1)N1CCN(c2ncnc3c2[nH]c2ccccc23)CC1	-4.7%	-1.4
73	Cc1n[nH]c(C)c1Sc1ccccc1N=Cc1cc([N+](=O)[O-])ccc1O	-4.6%	-5.6
74	CCCCCCCC(=O)N/N=C(\C)c1ccc(N)cc1	14.2%	-22.1
75	O=C(NCCCN1CCOCC1)c1ccc(Br)cc1Br	6.7%	-9.9
76	C#CCOCCOCCOCCNc1nc(N2CCN(C(=O)[C@H](CCCCN)n3cc(C(N)COC(=O)C(F)(F)F)nn3)CC2)nc(N2CCN(C(=O)[C@H](CCCCN)n3cc(C(N)CC(C)C)nn3)CC2)n1 (stereo partly specified)	11.0%	-14.5
77	Cc1ccc2cc(C#N)c(SCC(=O)NCC3CCCO3)nc2c1C (stereo unspecified)	-1.5%	2.5
78	COC(=O)c1cc(CNC(=O)c2cccc(Cl)c2Cl)ccc1OC	-3.3%	-11.5
79	Cc1cc(C)nc(-n2nc(C)cc2NC(=O)c2cccc(S(=O)(=O)N3CCCCC3)c2)n1	4.3%	-6.9
80	O=C(NCCc1ccccc1)c1ccncc1	6.9%	-3.8
81	CN(C)S(=O)(=O)c1cc(NC(=O)c2cc(=O)[nH]c3ccccc23)ccc1Cl	-2.6%	2.5
82	CN(C(=O)c1c(Br)cnn1C)C12CC3CC(CC(C3)C1)C2	23.3%	14.2
83	Cn1c(=O)c2c3c(sc2n2c(SCc4ccccc4)nnc12)CCCC3	-6.0%	-0.4
84	COc1ccccc1/C=C1\SC(=S)N(CC(=O)Nc2nnc(C)s2)C1=O	4.2%	4.0

The last 2 records of the section before open the next one.
item	Structure	Sfp PPTase inh	TRPV1 PAM
83	Cn1c(=O)c2c3c(sc2n2c(SCc4ccccc4)nnc12)CCCC3	-6.0%	-0.4
84	COc1ccccc1/C=C1\SC(=S)N(CC(=O)Nc2nnc(C)s2)C1=O	4.2%	4.0
85	Cc1cccc2cc(C(c3nnnn3CC3CCCO3)N3CCCC4(CCCCC4)C3)c(=O)[nH]c12 (stereo unspecified)	21.0%	-5.0
86	CN(C)c1ccc(CNc2nc3ccccc3s2)cc1	10.8%	-2.7
87	COc1ccc(N(CC(=O)NCCC2=CCCCC2)S(=O)(=O)c2ccc(C)cc2)cc1	16.9%	-2.6
88	Cc1ccc(F)c(NC(=S)Nc2cccc3ccccc23)c1	-17.6%	6.3
89	CC(=O)N1CCN(c2ccc(NC(=S)NC(=O)/C=C/c3ccccc3)cc2)CC1	-0.6%	2.0
90	CC(C)Cn1cnc2c(c1=O)c1nc3ccccc3nc1n2Cc1ccc2c(c1)OCO2	-9.0%	-6.4
91	CC(NC(=O)C1CCC(CNS(=O)(=O)c2ccccc2)CC1)c1ccc2c(c1)OCCO2 (stereo unspecified)	15.1%	4.3
92	COc1ccccc1C(=O)NC(=S)Nc1ccccc1N1CCCC1	7.8%	5.6
93	Cc1ccc(S(=O)(=O)N(C)S(=O)(=O)c2ccc(C#N)cc2)cc1	2.4%	-18.1

Whole records, quoted from the list. Order of screens: Sfp PPTase inh, TRPV1 PAM
Entry for CC(=O)N1CCN(c2ccc(NC(=S)NC(=O)/C=C/c3ccccc3)cc2)CC1 = -0.6%, 2.0
Entry for Cc1cccc2cc(C(c3nnnn3CC3CCCO3)N3CCCC4(CCCCC4)C3)c(=O)[nH]c12 (stereo unspecified) = 21.0%, -5.0
Entry for Cc1ccc(S(=O)(=O)N(C)S(=O)(=O)c2ccc(C#N)cc2)cc1 = 2.4%, -18.1

Only part of the results is shown; count on the stated rates, not on these rows.
